# T cruzi repl = inhibitors of intracellular T. cruzi growth, primary screen, luminescence, NIH3T3 host cells | 300,000 tested, 1.4% active | AID 1885, 2009 | T. cruzi beta-gal in NIH3T3, 90 h | inhibition, % (concentration not given with the values);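 active = mean inhibition across valid replicates above about 55%, limit read from the data; inconclusive = mean below that limit but half or more replicates reach it; inactive = mean below it, under half of replicates reach it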;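 also: signal also drops with host cell toxicity which is not excluded here; 0% = plate median of DMSO wells and 100% = zero luminescence signal; higher percent means less beta-gal luminescence so fewer parasites; stock transfer was 50 nL into about 50 µL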
# Calb FLC = C. albicans growth inhibition with fluconazole, primary screen, CaCi-2 strain, Alamar Blue fluorescence. C. albicans CaCi-2 (fluconazole-resistant clinical isolate) + fluconazole, 48 h. AID 1979, 2009. growth inhibition, % (test concentration not listed). 300,000 tested, 0.57% active;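 active = most replicates above 75%; inconclusive = exactly half above 75%; inactive = most below 75%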;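 also: all wells also contain fluconazole at 8 µg/ml as a sub-toxic cotreatment; 0% = median of DMSO wells and 100% = median of geldanamycin control wells; wells of about 8 µL received 7.5 nL stock; the first replicate is given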
# AF4-AF9 inh = inhibitors of AF4 peptide binding to AF9, primary screen, biochemical, AlphaScreen, biotin-AF4 peptide, FLAG-AF9, single point; Protein AF-9 (Homo sapiens), P42568; inhibition, % at 10 µM; 350,000 tested, 0.47% active;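 active = every replicate reaching a set inhibition limit, whatever the replicate mean, cut at about 25% in these data; inconclusive = mean inhibition reaches that limit but some replicates miss it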;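 also: 0% = plate neutral control median and 100% = total signal loss; the record names both 10 and 1 µM as test concentration; the first replicate is given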
# Target sequence (P42568 whole entry, looked up): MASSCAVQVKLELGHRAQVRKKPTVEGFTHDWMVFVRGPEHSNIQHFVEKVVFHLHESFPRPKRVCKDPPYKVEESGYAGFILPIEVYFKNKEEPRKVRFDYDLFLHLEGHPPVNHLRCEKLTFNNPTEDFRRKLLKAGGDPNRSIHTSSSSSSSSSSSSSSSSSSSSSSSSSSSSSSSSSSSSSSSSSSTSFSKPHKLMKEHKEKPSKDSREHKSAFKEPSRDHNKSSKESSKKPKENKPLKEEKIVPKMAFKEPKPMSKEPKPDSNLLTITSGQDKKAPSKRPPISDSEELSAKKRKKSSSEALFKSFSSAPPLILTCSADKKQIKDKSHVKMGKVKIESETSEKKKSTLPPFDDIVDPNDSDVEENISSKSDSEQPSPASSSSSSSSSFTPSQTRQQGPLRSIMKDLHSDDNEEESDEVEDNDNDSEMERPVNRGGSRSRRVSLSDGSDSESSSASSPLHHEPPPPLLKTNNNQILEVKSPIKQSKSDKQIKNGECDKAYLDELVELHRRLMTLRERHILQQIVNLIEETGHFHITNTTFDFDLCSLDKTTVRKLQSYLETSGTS
# ALR inh = inhibitors of human ALR sulfhydryl oxidase, primary screen, biochemical, H2O2 detection, HRP-luminol luminescence, single point; FAD-linked sulfhydryl oxidase ALR (Homo sapiens), P55789; purified ALR, DTT oxidation; inhibition, % (test concentration not listed); 290,000 tested, 3.8% active; AID 485317, 2010;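 active = mean and each replicate at 75% or more; inconclusive = only one of the two met; inactive = neither met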;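 also: stock transfer was 7.5 nL into about 7.5 µL; 0% = neutral wells and 100% = wells with inactivated enzyme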
# Target sequence (P55789 whole entry, looked up): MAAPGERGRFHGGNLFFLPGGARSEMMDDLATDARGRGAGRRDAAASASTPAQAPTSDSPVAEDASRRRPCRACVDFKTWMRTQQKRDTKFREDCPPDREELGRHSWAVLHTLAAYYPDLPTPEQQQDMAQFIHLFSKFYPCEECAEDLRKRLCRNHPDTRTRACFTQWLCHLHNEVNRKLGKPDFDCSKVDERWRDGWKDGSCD
# FGF22 binding = binders of human FGF22 protein, primary screen, FGF22 synaptogenesis inhibitor project, biophysical, thermal shift, single point; calls only at 9.99 µM; 340,000 tested, 1.5% active; recombinant FGF22 thermal shift, SYPRO orange fluorescence; percent of sucrose octasulfate shift, DMSO zero;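 active = melting point raised past a set limit in the mean and every replicate; inconclusive = no clear call; three in four hits are not shown here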
# Target sequence (Q9HCT0 whole entry, looked up): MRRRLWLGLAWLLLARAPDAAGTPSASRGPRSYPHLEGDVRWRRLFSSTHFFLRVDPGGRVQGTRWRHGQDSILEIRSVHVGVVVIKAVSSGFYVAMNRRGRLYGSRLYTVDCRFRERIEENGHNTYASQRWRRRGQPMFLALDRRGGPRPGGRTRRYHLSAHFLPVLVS
# Beta cell apopt = inhibitors of cytokine-induced beta cell apoptosis, primary screen, luminescence; INS-1E cytokine-induced death, ATP luminescence, 48 h; percent of positive-control rescue, neutral wells zero; protection from apoptosis, % (concentration not given with the values); 300,000 tested, 0.8% active; AID 435005, 2010;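 active = all replicates at 75% or more, or half of them and the mean; inconclusive = half reach 75% but not the mean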;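 also: 0% = cytokine-treated negative control wells and 100% = positive control rescue; higher means more ATP so stronger rescue from cytokine killing; wells of about 40 µL received 100 nL stock; the first replicate is given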
# Ecoli rRNA inh = reduced GFP signal of wild-type E. coli, primary screen, bacterial rRNA inhibitor project, GFP/RFP fluorescence, OD600, single point | GFP signal change (wild-type ribosome), % (no concentration beside the values) | E. coli WT GFP vs humanized-ribosome RFP mutants, 24 h; stronger effect = lower value; DMSO median 0, no signal -100 | 350,000 tested, 1.6% active;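 active = significant combined selectivity score with lowered wild-type GFP, culture density cut under 30%, mutant RFP and density less affected; inactive = any of these conditions unmet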; also: one replicate is shown; some compounds called inactive have numbers as strong as hits
# RanGTP-Impb inh = inhibitors of RanGTP-importin-beta interaction, primary screen, biochemical, FRET, CFP-Ran, YFP-importin-beta, homogeneous | inhibition, % (concentration not given with the values) | 300,000 tested, 1.1% active | AID 2216, 2009 | cell-free CFP-Ran/YFP-importin-beta FRET ratio | Ran GTPase (GTP-bound) - importin-beta complex;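 active = most replicates above 15%; inconclusive = exactly half above 15%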;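 also: 0% = DMSO wells and 100% = Ran loaded with GDP instead of GTP; wells of about 40 µL received 100 nL stock; the first replicate is given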
# Ecoli rRNA inh OD600 = second read-out of Ecoli rRNA inh, no call of its own (marks repeat the call); OD600 change, %; measured here: OD600 growth;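 optical density of the mix in the first replicate; 0 = DMSO median and -100 = no signal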
# Ecoli rRNA inh RFP = recorded beside Ecoli rRNA inh, whose call it bears; RFP signal change, %; measured here: RFP humanized mutant strains;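 first replicate; 0 = DMSO median and -100 = no signal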
# * marks the source's active call; other numbers are inactive results; i = inactive; ? = inconclusive; · = not tested or not shown; + = active, no number.
SMILES	T cruzi repl	Calb FLC	AF4-AF9 inh	ALR inh	FGF22 binding	Beta cell apopt	Ecoli rRNA inh	Ecoli rRNA inh OD600	Ecoli rRNA inh RFP	RanGTP-Impb inh
O=C(CC1C(=O)NCCN1Cc1ccccc1C(F)(F)F)NCCn1cccn1 (stereo not drawn)	-11	-4	-2.2	-13	i	0	6	-5	-1.5	-1.8
Cc1cc(C)c(C)c(S(=O)(=O)N2CCN(C(=O)c3ccccc3OCc3c(C)noc3C)CC2)c1C	·	·	2.1	1	i	2	-3	3	7.3	·
Cn1cccc1/C=N/NC(=O)Cc1cccc2ccccc12	-49	-5	20	6	+	2	-7	-12	-3.1	4.9
Cc1cccc(-n2c(SCC(=O)NCc3ccco3)nc3ccccc3c2=O)c1	6	4	·	-1	·	-2	·	·	·	-0.2
O=C(CN1C(=O)c2ccccc2S1(=O)=O)c1cccc(Br)c1	-6	-3	-4.1	1	i	-1	7	12	0.8	-4.1
Cc1ccc(CNC(=O)Cn2cnc3c(OCc4ccccc4)ncnc32)o1	·	·	-2.0	·	i	-4	-6	7	1.8	·
COc1cc(=O)oc(-c2ccccc2)c1C(C)=O	4	-2	-2.8	-7	i	·	15	4	1.2	-0.1
COc1ccc(CNC(=O)COC(=O)/C=C/c2ccc(Cl)cc2)cc1	-9	13	-6.2	-5	·	-1	1	7	-0.4	-2.9
O=C(NC1CCCC1)C(c1ccc(N2CCOCC2)cc1)N(Cc1ccccc1)C(=O)c1ccco1 (stereo not drawn)	11	-3	·	·	·	-5	·	·	·	1.5
O=C(COc1ccccc1)Nc1ncn[nH]1	-8	1	-7.0	-7	i	-4	5	13	9.1	3.9
O=[N+]([O-])c1ccc(-c2ccc(S(=O)(=O)N3CCOCC3)cc2)cc1	-9	-6	-5.5	-8	i	-1	1	0	-1.2	1.9
CCCCCOCC1CC(C/C(C)=N/NC(N)=O)(C(=O)OCC)C(=O)O1 (stereo not drawn)	-7	5	-8.0	-6	i	-2	9	19	2.0	6.9
Cc1ccc(C)c(NC(=O)CSc2nncn2C)c1	-4	6	-2.1	-2	i	-3	1	7	-2.2	-2.7
O=C(Nc1ccc2ccccc2c1)c1ccc(Cl)cc1Cl	11	·	-2.9	-16	i	-9	-1	1	-1.0	8.3
O=C(Oc1cccc(C(=S)N2CCOCC2)c1)c1ccccc1	1	14	4.6	·	i	-1	-10	-7	0.0	2.7
O=C(NCC1CCCO1)c1cc(Br)c(Br)s1 (stereo not drawn)	-5	11	-0.4	24	i	·	-13	-17	-1.3	-1.4
COCCn1c(SCC(=O)Nc2ccccc2F)nc2c(c1=O)SCC2	-4	0	1.6	23	i	3	-2	-4	3.8	4.0
CSc1ncccc1C(=O)Nc1cccc(S(=O)(=O)N2CCCCC2)c1	·	·	1.3	-1	i	-7	-8	-8	0.0	·
Cc1oc2c(C)c3oc(=O)c(CCC(=O)O)c(C)c3cc2c1-c1ccccc1	-16	14	-1.4	10	i	2	-5	-3	-1.8	0.1
Cc1ccc(C)c(C(=O)Nc2nc3ccccc3[nH]2)c1	-8	-11	-3.3	4	i	2	2	8	-2.7	4.1
O=c1[nH]c(SCc2ccccc2Cl)nc2[nH]ncc12	-10	8	-3.2	-20	i	0	-1	-10	-5.4	?
CCc1nc2ccccc2n1CC(=O)OCC(=O)N(CC(C)C)c1c(N)n(Cc2ccccc2)c(=O)[nH]c1=O	-6	-1	-3.1	·	i	0	6	5	-1.8	?
CCOc1ccccc1NC(=O)c1cc(S(=O)(=O)N2CCC3(CC2)OCCO3)ccc1F	21	60	·	-36	·	-5	·	·	·	4.0
O=C(Cc1cccc2ccccc12)N/N=C/c1ccc(F)cc1	-12	0	·	9	·	-3	·	·	·	1.4
CCc1ccccc1N1C(=O)C2C3CC(=O)C(c4ccccc43)C2C1=O (stereo not drawn)	-10	13	-3.8	-3	i	0	4	9	-1.1	3.8
CC1(C)C(C(=O)O)N2C(=O)C(NC(=O)Cc3ccccc3)C2S1=O (stereo not drawn)	-5	4	-4.2	-5	i	0	16	14	2.3	3.8
C(=Nc1ccc(N2CCOCC2)cc1)c1c[nH]c2ccccc12	27	-14	12	99*	i	-1	·	·	·	-1.2
Cn1c2ccc(F)cc2c2ncn(CCCN(CCO)CCO)c(=O)c21	-7	31	·	1	·	-3	·	·	·	2.7
CCN(CC)c1ccc(/C=c2\sc3nnc(-c4ccccc4Cl)n3c2=O)cc1	-10	-1	·	-4	·	2	·	·	·	-33
CCOC(=O)C1CCCN(S(=O)(=O)c2ccc(C)cc2)C1 (stereo not drawn)	1	-7	·	-9	·	0	·	·	·	1.4
COc1ccc2sc(-c3ccccc3OC)c(-c3ccc(O)cc3)c2c1	·	·	·	-4	i	-1	-37	-68	0.0	·
O=C1c2ccccc2C(=O)N1CCc1nc2ccccc2c(=O)n1Cc1ccco1	-17	-18	·	6	·	1	·	·	·	-1.5
Cc1ccc(Cn2nc(C)c(NC(=O)C3CC3)c2C)cc1	-1	19	·	·	·	5	·	·	·	-3.1
COc1ccc(C(=O)C[n+]2ccccc2/C=N/O)cc1	-35	0	-3.5	26	i	1	16	18	4.1	3.0
Cc1[nH]n(-c2nc(-c3cccc([N+](=O)[O-])c3)cs2)c(=O)c1C	6	19	·	97*	·	4	·	·	·	-1.7
COC(=O)c1sc(N)c(C(=O)OC)c1COC(=O)[C@@H](NS(=O)(=O)c1cccc(Cl)c1)C(C)C	4	9	-1.9	·	i	-2	-22	-27	13	-2.0
COc1cccc(C(=O)NCCCNC(=O)c2ccco2)c1	-1	-1	-0.4	0	i	-4	-2	3	-1.2	1.9
COc1ccc(N(CC(=O)NN=C2CCCCCCC2)S(=O)(=O)c2ccccc2)cc1Cl	-5	2	·	-11	·	-3	·	·	·	-1.3
CCOc1ccc2[nH]c(=O)c(CN(CCN3CCCC3)C(=S)Nc3ccccc3OC)cc2c1	6	-16	12	-8	i	·	5	10	-0.4	-2.2
CC(=O)N(C)c1cccc(-c2ccc3nnc(C)n3n2)c1	-2	2	-0.5	·	i	·	7	4	-0.1	2.9

# Just Calb FLC, for 6 of the compounds above:
Structure | Calb FLC
O=c1[nH]c(SCc2ccccc2Cl)nc2[nH]ncc12 | 8
CCc1nc2ccccc2n1CC(=O)OCC(=O)N(CC(C)C)c1c(N)n(Cc2ccccc2)c(=O)[nH]c1=O | -1
CCOc1ccccc1NC(=O)c1cc(S(=O)(=O)N2CCC3(CC2)OCCO3)ccc1F | 60
O=C(Cc1cccc2ccccc12)N/N=C/c1ccc(F)cc1 | 0
CCc1ccccc1N1C(=O)C2C3CC(=O)C(c4ccccc43)C2C1=O (stereo not drawn) | 13
CC1(C)C(C(=O)O)N2C(=O)C(NC(=O)Cc3ccccc3)C2S1=O (stereo not drawn) | 4

# Carrying on:
SMILES	T cruzi repl	Calb FLC	AF4-AF9 inh	ALR inh	FGF22 binding	Beta cell apopt	Ecoli rRNA inh	Ecoli rRNA inh OD600	Ecoli rRNA inh RFP	RanGTP-Impb inh
Cn1c(=O)oc2cc(S(=O)(=O)Nc3ccc(Cl)cc3F)ccc21	17	16	-1.7	11	i	-7	6	-1	0.7	-0.3
COc1ccccc1N1CCN(C2CCCN(C(=O)c3cscn3)C2)CC1 (stereo not drawn)	-8	-2	-0.4	40	i	-3	13	7	3.0	1.0
CCCNC(=O)N1CCN(Cc2ccco2)CC1	-15	4	·	-21	·	-6	·	·	·	3.3
NC1=NC(=O)/C(=C/c2ccc(OCC(=O)O)cc2)S1	-10	12	1.1	-19	i	1	22	-4	1.9	0.0
Cn1c(CN2CCOCC2)nnc1SCc1ccc(C#N)cc1	3	-6	-0.4	-1	i	·	15	5	-0.8	4.8
CC(=O)C1=C(c2ccccc2)NC(=S)NC1c1ccc(O)c(O)c1 (stereo not drawn)	-21	-30	1.0	99*	·	0	10	8	-3.7	·
Cc1ccc(Oc2ccc(OCC(=O)NC(CC(C)C)C(=O)O)cc2)cc1 (stereo not drawn)	-6	9	-3.1	-3	i	0	11	3	0.5	-0.3
Cc1ccc(-n2nnnc2SCC(=O)Nc2cccc(NC(=O)c3ccco3)c2)cc1C	5	-4	·	8	·	4	·	·	·	-0.4
COc1ccc(-n2c(C)cc(=O)c3c2CC(C)(C)CC3=O)cc1	-8	5	·	11	·	-3	·	·	·	1.7
Cc1cc(CCCCCCCCc2cc(C)cc(=O)o2)oc(=O)c1	-4	2	·	-1	·	-1	·	·	·	2.8
Cc1ccc(NC(=S)N(CCCN2CCCC(C)C2)Cc2ccco2)cc1C (stereo not drawn)	20	-25	4.4	-9	i	-2	-4	-1	4.2	-4.4
CCOc1ccc(-c2nnn(CC(=O)NCc3ccccc3)n2)cc1	-8	6	-1.7	2	i	-1	13	13	-0.9	-2.1
CCCN1CCN(C(=O)c2ccc(Sc3ccc(C)cc3)c(NC(C)=O)c2)CC1	6	4	13	-13	i	-9	-13*	9.0*	0.0*	-3.6
CC1CCCN(C(=O)NC(=O)c2ccc(Cl)cc2)C1 (stereo not drawn)	-2	-8	-1.6	-5	i	-5	-2	-1	-0.3	-1.2
Cc1sc2ncnc(SCC(=O)NNC(=O)c3ccco3)c2c1C	5	-13	-0.7	-4	i	-4	21	15	2.5	-3.7
COC(=O)CSc1ccc2nnc(CCNS(=O)(=O)c3ccc(C)cc3)n2n1	-12	-12	-1.1	-3	i	0	9	9	0.8	0.4

# Structures shown so far that contain bromine, in the order listed:
SMILES	T cruzi repl	Calb FLC	AF4-AF9 inh	ALR inh	FGF22 binding	Beta cell apopt	Ecoli rRNA inh	Ecoli rRNA inh OD600	Ecoli rRNA inh RFP	RanGTP-Impb inh
O=C(CN1C(=O)c2ccccc2S1(=O)=O)c1cccc(Br)c1	-6	-3	-4.1	1	i	-1	7	12	0.8	-4.1
O=C(NCC1CCCO1)c1cc(Br)c(Br)s1 (stereo not drawn)	-5	11	-0.4	24	i	·	-13	-17	-1.3	-1.4

# Some of the compounds tested, so the mix of outcomes need not match the whole.
